Bioassay records: PubChem BioAssay, several laboratories
E coli growth = E. coli growth inhibition; OD600 absorbance (test concentration not listed); Escherichia coli growth, OD600, 23 h; hits give low values; hit rate 0.21% among 330,000; AID 1053175;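 active = OD600 absorbance below the run mean of sample wells minus 3.6 SD, in any replicate, cut at about 0.56 in these data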;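 note: stock transfer was 300 nL into about 60 µL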
Vif A3G = HIV-1 Vif–A3G interaction blockers – biochemical, TR-FRET, GST-Vif 1-94, biotin-A3G peptide, dose response retest, primary screen (AID 1117319) | hit rate 0.57% among 260,000 | inhibition, %, or IC50 in µM where a hit was titrated | TR-FRET GST-Vif / biotin-A3G peptide binding; higher % means a stronger effect; test concentration not given here; strong numbers were not always called active;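 active = above the screen mean plus three standard deviations and confirmed in dose response; inconclusive = results disagree or hit not tested in dose response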;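 note: Vif residues 1-94 fused to GST binding biotinylated APOBEC3G peptide 110-148; 0% = full assay without inhibitor and 100% = GST in place of GST-Vif; retest series ran down from 100 µM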
A1 inh = inhibitors of the anti-apoptotic protein A1, read as caspase activation; MEF A1-2A-BIM cells, Caspase-Glo 3/7 luminescence, 3 h; percent of clofoctol response, vehicle zero; caspase activation, % (no concentration beside the values); hit rate 0.066% among 330,000;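 active = over half of replicate activation scores above 10%, or exactly half above 10 with the replicate mean above 10; inconclusive = replicate mean below 10 yet half the replicates above 10; inactive = over half of replicates below 10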;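 note: wells of about 30 µL received 50 nL stock; many hits fall short of the cut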
B2AR ag = activates human beta-2 adrenergic receptor causing internalization; hit rate 0.43% among 340,000; AID 504454; P07550; Am2.2-beta2AR cells, FAP receptor internalization, flow cytometry; reference of the scale not given here; response, % (no concentration beside the values);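 active = response above a set limit, near 3 SD of response in nonfluorescent compounds, cut at about 42% in these data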;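 note: stock transfer was 100 nL into about 11 µL; a reference agonist was the positive control; negative values mostly stem from fluorescent compounds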
Target sequence (P07550 whole entry, looked up): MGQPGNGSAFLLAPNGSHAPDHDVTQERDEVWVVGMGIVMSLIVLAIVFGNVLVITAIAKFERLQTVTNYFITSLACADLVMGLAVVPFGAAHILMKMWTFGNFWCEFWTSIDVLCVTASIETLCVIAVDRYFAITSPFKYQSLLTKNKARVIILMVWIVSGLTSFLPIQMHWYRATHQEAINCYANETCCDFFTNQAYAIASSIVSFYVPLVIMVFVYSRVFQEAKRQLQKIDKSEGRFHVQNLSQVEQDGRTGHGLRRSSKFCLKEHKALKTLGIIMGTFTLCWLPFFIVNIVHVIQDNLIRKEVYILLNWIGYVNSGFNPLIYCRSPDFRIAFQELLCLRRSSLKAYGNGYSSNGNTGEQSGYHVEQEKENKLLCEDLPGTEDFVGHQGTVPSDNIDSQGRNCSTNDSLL
UCH37 inh = blocks the human deubiquitinase UCH37 | purified proteasome/UCH37, Ub-AMC cleavage fluorescence | inhibition, % (concentration not given with the values) | hit rate 0.33% among 330,000;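 active = mean of two replicates above 20%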;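 note: 0% = compound-free wells with enzyme and 100% = wells lacking proteasome; stock transfer was 100 nL into about 20 µL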
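Test system – human UCH37 enzyme supplied as purified proteasome complex · Incubation – 30 min preincubation with enzyme, 25 min cleavage at room temperature · Detection – AMC fluorescence from Ub-AMC cleavage, excitation 355 nm, emission 460 nm · Benchmarks – no-proteasome wells (full inhibition) and compound-free wells (no inhibition)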
HNF4A DNA FP = change in binding of human HNF4 alpha to DNA | P41235 | activity change, % at 10 µM | hit rate 0.3% among 360,000 | HNF4a-FITC DNA binding, fluorescence polarization, 1 h | AID 1224865; in the data active = activity change above about 30%, passing the limit was not always enough;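 note: controls were the assay level and a saturating level of protein; the project sought stronger binding though the title names inhibitors; some compounds called inactive have numbers as strong as hits; positive values seem to mean higher polarization but the record does not say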
Target sequence (P41235 whole entry, looked up): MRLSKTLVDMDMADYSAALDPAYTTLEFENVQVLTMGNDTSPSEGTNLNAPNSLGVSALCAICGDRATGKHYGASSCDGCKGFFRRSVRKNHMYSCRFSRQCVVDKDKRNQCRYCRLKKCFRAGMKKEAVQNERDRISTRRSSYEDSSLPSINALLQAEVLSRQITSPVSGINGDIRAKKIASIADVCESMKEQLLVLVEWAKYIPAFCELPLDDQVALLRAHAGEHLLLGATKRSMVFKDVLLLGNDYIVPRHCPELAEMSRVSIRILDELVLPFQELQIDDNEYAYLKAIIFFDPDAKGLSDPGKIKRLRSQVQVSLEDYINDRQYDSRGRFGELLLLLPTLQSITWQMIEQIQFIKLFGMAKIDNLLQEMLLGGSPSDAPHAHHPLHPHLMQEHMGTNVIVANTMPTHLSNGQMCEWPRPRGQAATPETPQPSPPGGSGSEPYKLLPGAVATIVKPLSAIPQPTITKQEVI
LANA-H2B inh = blocks KSHV LANA binding to histone H2A/H2B | inhibition, % (test concentration not listed) | cell-free LANA-H2A/H2B peptide, fluorescence polarization | hit rate 0.6% among 320,000 | Q9QR71; in the data active = inhibition mostly above about 10%, no sharp cut-off; inactive = mostly below about 6.7%;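 note: stock transfer was 7.5 nL into about 10 µL; 0% = median of vehicle wells and 100% = median of positive control wells; one replicate is shown; the record names a cut of 25% in any replicate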
Active calls of the source: *; u = inconclusive; x = no result given; & = joins results of further samples; ! = not active in a repeat.

SMILES | E coli growth | Vif A3G | A1 inh | B2AR ag | UCH37 inh | HNF4A DNA FP | LANA-H2B inh
COc1ccc(/C=C/C(=O)OCC(=O)c2ccc3c(c2)NC(=O)CO3)c(OC)c1 | 0.68 | -3% | 0.1 | 17 | -5.9 | 5.4 | 7.4
CCc1ccc(CN(C)C(=O)c2cc(COc3ccc(-n4cncn4)cc3)on2)cc1 | 0.65 | -10% | -0.1 | -5 | 0.9 | 0.4 | 0.6
Cc1cc(C)c[n+](-c2nc3ccccc3nc2C(=C=[N-])C#N)c1 | 0.7&0.79 | 8%&0% | 0.7&0.1 | 8&0 | -3.3&6.9 | 44*! | 1.8&0.0
CN(C)S(=O)(=O)c1ccc(C(=O)Nc2ccccc2C(=O)NCCCN2CCOCC2)cc1 | 0.6 | 7% | 1.2 | -8 | -0.1 | 0.0 | 6.7
COc1ccc(CCN2CC(C(=O)OCC(=O)N(C)Cc3ccccc3)CC2=O)cc1OC (stereo not drawn) | 0.62 | 10% | 0.6 | 8 | 1.9 | -0.1 | 1.7
CCOc1ccc(NC(=O)c2sc3nc4n(c(=O)c3c2C)CCC4)cc1 | 0.69 | x | -0.3 | 4 | -1.9 | -2.8 | -0.2
CC(=O)c1cn(CC(=O)Nc2ccccc2F)c2ccccc12 | x | -9% | 0.2 | -4 | x | -0.6 | 2.1
O=C1c2cc(Cl)ccc2-c2c(O)cc(Cl)cc21 | 0.57 | -2% | x | 2 | 3.0 | 5.6 | x
O=C(c1cc2ccccc2o1)c1nc2c(n1O)CCCCC2 | 0.74 | 7% | -0.3 | 4 | 12 | -2.8 | -1.0
Nc1ncnc2c1nc(Br)n2[C@@H]1O[C@@H]2COP(=O)(O)O[C@H]2[C@H]1O | x | x | 2.0 | -6 | 1.0 | 0.7 | -5.2
CN(c1ccccc1)S(=O)(=O)c1cccc(NC(=O)COc2cccc([N+](=O)[O-])c2)c1 | 0.65 | -12% | 0.4 | 1 | 2.8 | -2.8 | 0.2
COC(=O)c1cccc2nc3c(C(C)O)cccc3nc12 (stereo not drawn) | 0.7 | x | -0.1 | 5 | 6.9 | 5.9 | -2.5

Single records, as listed above. Screens in order: E coli growth, Vif A3G, A1 inh, B2AR ag, UCH37 inh, HNF4A DNA FP, LANA-H2B inh
Shown for COc1ccc(/C=C/C(=O)OCC(=O)c2ccc3c(c2)NC(=O)CO3)c(OC)c1 : 0.68, -3%, 0.1, 17, -5.9, 5.4, 7.4
Shown for CN(C)S(=O)(=O)c1ccc(C(=O)Nc2ccccc2C(=O)NCCCN2CCOCC2)cc1 : 0.6, 7%, 1.2, -8, -0.1, 0.0, 6.7
Shown for COC(=O)c1cccc2nc3c(C(C)O)cccc3nc12 (stereo not drawn) : 0.7, x, -0.1, 5, 6.9, 5.9, -2.5
Shown for CCc1ccc(CN(C)C(=O)c2cc(COc3ccc(-n4cncn4)cc3)on2)cc1 : 0.65, -10%, -0.1, -5, 0.9, 0.4, 0.6
Shown for CN(c1ccccc1)S(=O)(=O)c1cccc(NC(=O)COc2cccc([N+](=O)[O-])c2)c1 : 0.65, -12%, 0.4, 1, 2.8, -2.8, 0.2

Next section:
SMILES | E coli growth | Vif A3G | A1 inh | B2AR ag | UCH37 inh | HNF4A DNA FP | LANA-H2B inh
CCCCSc1nc(C)nc2c1c(=O)n(C)c(=O)n2C | 0.68 | 3% | 0.2 | -3 | 4.9 | -0.7 | -1.8
COCC1CCCN(C(=O)c2ccc3oc(Cc4ccc(Cl)cc4)nc3c2)C1 (stereo not drawn) | 0.64 | -1% | 0.8 | 3 | -1.3 | 1.4 | -2.3
Cc1ccc(CNc2oc(C)nc2C#N)cc1 | 0.65 | 0% | 0.3 | -1 | 2.8 | 0.8 | 4.3
Cc1c(C(=O)C(=O)NCCc2ccc(S(N)(=O)=O)cc2)c2ccccc2n1C | 0.7 | -7% | -0.8 | 3 | 2.7 | 0.8 | 3.2
Cc1ccc(NC(=O)c2nc[nH]c2C(=O)N2CCC(C)CC2)cc1 | 0.67 | 5% | -0.5 | 4 | -2.6 | 1.8 | 1.6
Cc1cc2c(OCC(O)CN3CCCCC3)cccc2[nH]1 (stereo not drawn) | 0.66 | 0% | -0.2 | -14 | 0.6 | 0.9 | -0.1
CCCCOc1ccc(C(=O)N/C(=C\c2cccc([N+](=O)[O-])c2)C(=O)OCc2ccco2)cc1 | 0.71 | x | -0.7 | 0 | 1.0 | 2.9 | -0.1
COc1ccc(N2CCN(C(=S)NC(C)c3ccccc3)CC2)cc1 (stereo not drawn) | 0.68 | 18% | 1.5 | 3 | -1.1 | 1.5 | -1.4
O=C(c1ccc(Cl)cc1)c1cnc(Nc2ccccc2Cl)s1 | 0.73 | -3% | -2.0 | -2 | -16 | -1.2 | 0.9
O=C(NCC(=O)N1CCN(S(=O)(=O)c2c(F)cccc2F)CC1)c1ccccc1F | 0.69 | -1% | x | 0 | 1.2 | -0.1 | x
O=c1c2ccsc2ncn1Cc1ccc(Cl)cc1 | 0.68 | 5% | 0.1 | -3 | 4.9 | 1.9 | -1.6
O=C(Nc1nc(-c2cccs2)cs1)c1ccc([N+](=O)[O-])o1 | 0.52* | 5% | 1.9 | 11 | 5.6 | 4.4 | -2.3

2 of the compounds above, with tabs:
structure	E coli growth	Vif A3G	A1 inh	B2AR ag	UCH37 inh	HNF4A DNA FP	LANA-H2B inh
Cc1ccc(NC(=O)c2nc[nH]c2C(=O)N2CCC(C)CC2)cc1	0.67	5%	-0.5	4	-2.6	1.8	1.6
Cc1cc2c(OCC(O)CN3CCCCC3)cccc2[nH]1 (stereo not drawn)	0.66	0%	-0.2	-14	0.6	0.9	-0.1

Next results
SMILES | E coli growth | Vif A3G | A1 inh | B2AR ag | UCH37 inh | HNF4A DNA FP | LANA-H2B inh
O=C(COC(=O)CCS(=O)(=O)c1ccc(Cl)cc1)NCCc1ccccc1 | 0.64 | 3% | 0.6 | -1 | 1.0 | -1.0 | 2.0
CSc1ccccc1C(=O)NC1CCCN(Cc2ccccc2F)C1 (stereo not drawn) | 0.7 | x | 2.6 | 8 | 4.2 | -0.8 | 1.3
O=C(Nc1ccccc1N1CCCCC1)C1CCN(S(=O)(=O)c2ccccc2C(F)(F)F)CC1 | 0.66 | -9% | 0.1 | 14 | 2.5 | 0.3 | -1.7
CCOC(=O)CN(c1ccccc1)S(=O)(=O)c1ccc(F)cc1 | 0.67 | 7% | 0.2 | -2 | 3.8 | 1.0 | -2.5
CCOc1ccc(CNC(=O)c2ccc(Sc3ccc(Cl)cc3)c(NC(C)=O)c2)cc1 | 0.65 | -27% | 0.6 | 2 | -1.1 | 0.4 | 2.8
O=C(O)CSc1nc2sc3c(c2c(=O)n1-c1ccccc1)CCC3 | 0.66 | x | 0.8 | -4 | 7.4 | -5.3 | 4.8
N#Cc1c(-c2ccccc2)cc(-c2ccccc2)nc1SCC(=O)NCC(=O)O | 0.7 | -12% | 0.2 | -2 | -9.8 | 2.9 | 4.2
COc1ccc(N(CC(=O)Nc2cccc(C)c2C)S(=O)(=O)c2c(C)n[nH]c2C)cc1 | 0.72 | 6% | 0.1 | -6 | 5.9 | 3.3 | 1.1
C[C@]12C=CC(=O)C=C1CC[C@@H]1C2C(O)C[C@@]2(C)C1CC[C@]2(O)C(=O)COC(=O)CCC(=O)NC(CC(=O)O)C(=O)O (stereo partly drawn) | 0.67 | -6% | 1.3 | 3 | 0.2 | -2.6 | -2.8
COc1cccc(CN=C2Nc3ccccc3CS2)c1 | 0.67 | 2% | -0.5 | -6 | 2.9 | -1.8 | -4.4
CCCCC(=O)Nc1ccc(C(=O)c2ccccc2)cc1 | x | x | 0.6 | -4 | x | 0.3 | 0.1
O=C(O)Cn1nc(-c2ccc(F)cc2)oc1=O | 0.67 | 0% | 0.0 | 4 | -1.4 | -1.4 | 1.3
COCCC(=O)N1CCC(Oc2ccc(C(=O)NCCn3cccn3)cc2)CC1 | 0.71 | x | 1.7 | 6 | 1.7 | 0.4 | -2.6
N#Cc1ccccc1/C=N/Nc1nc(-c2ccccc2)c2cc(Br)ccc2n1 | x | -11% | 0.5 | -16 | x | -3.4 | -3.9
Cc1ccc(S(=O)(=O)NCc2nc3nc(C)cc(C)n3n2)c(C)c1 | 0.64 | x | 0.1 | 1 | 4.6 | -0.4 | 5.5
CCOC(=O)CNC(=O)CN1CCCN(S(=O)(=O)c2ccc(Br)s2)CC1 | 0.7 | -8% | -0.5 | 41 | 0.6 | -2.7 | -11
CC(C)C[C@H](NC(=O)c1nc[nH]c1C(=O)N1CCN(C(=O)OC(C)(C)C)CC1)C(=O)OC(C)(C)C | x | x | -0.9 | 3 | -0.8 | 0.6 | -0.5
CCN1CCCC1Cn1cnc2c([nH]c3ccc(C)cc32)c1=O (stereo not drawn) | x | 2% | -0.1 | -3 | x | -2.2 | -0.8
Fc1ccc(NC(=S)Nc2ccccc2N2CCOCC2)cc1Cl | 0.68 | x | -0.5 | -3 | 3.1 | -3.4 | -3.3
O=C1CC(c2ccccc2F)c2cc3c(cc2N1)CCC3 (stereo not drawn) | 0.69 | -2% | 0.1 | 10 | -1.5 | 0.4 | -9.0
CCCc1cc(=O)oc2cc(OCC(=O)N3C[C@H]4C[C@@H](C3)c3cccc(=O)n3C4)c(Cl)cc12 | 0.78 | x | -0.6 | -22 | -2.8 | 4.7 | -4.1
CCOC(=O)C1CCN(C(=O)C(C)Sc2ccc(Cl)cc2)CC1 (stereo not drawn) | 0.69 | 30% | 0.7 | 22 | 1.6 | 0.3 | -0.5
COc1ccc(-c2noc(CCC(=O)N3CCN(c4ccc(Cl)cc4)CC3)n2)cc1 | 0.7 | -1% | x | 2 | -0.7 | 0.2 | x
CCC(Sc1nc2n[nH]c(C)c2c(=N)n1-c1cccc(Cl)c1C)C(=O)N(CC)CC (stereo not drawn) | 0.74 | u | 0.2 | 3 | 5.8 | 1.8 | 2.5
O=C(Cn1c(=O)oc2cc(S(=O)(=O)N3CCCC3)ccc21)N1CCCC1 | 0.71 | -1% | 0.7 | 2 | 4.0 | 4.7 | 2.0
CCN1CCC[C@H]1CNC(=O)c1c(O)c(Cl)cc(Cl)c1OC | x | 5% | 0.5&0.0 | -1 | -1.5&-1.1 | 0.2 | -1.1&8.8
Cc1ccc(N(Cc2ccccc2)C(=O)Cc2ccc(S(=O)(=O)N3CCOCC3)s2)cc1 | 0.62 | -6% | x | 4 | 2.0 | -0.8 | x
CCOC(=O)c1c(NC(=O)c2nn(C)cc2[N+](=O)[O-])sc(C)c1C | 0.74 | -3% | 0.8 | -9 | -0.9 | -0.6 | -3.4
COc1ccc(NC(=O)Nc2cccc3c2O[C@H](CN(C)C(=O)NC2CCCCC2)[C@@H](C)CN([C@H](C)CO)C3=O)cc1 | x | x | -0.6 | -7 | 5.9 | 3.3 | -2.5
CCc1ccc(N/C(=N/c2nc(C)cc(C)n2)NC(C)=O)cc1 | x | -4% | 0.9 | -7 | x | -2.3 | 6.9
COc1ccccc1-n1nc(C(=O)Nc2ccc3c(c2)OCO3)c2ccccc2c1=O | 0.72 | 22% | 0.3 | -2 | 2.0 | 3.3 | 2.8
O=C(COC(=O)C1=COCCO1)Nc1ccccc1Oc1ccccc1 | 0.71 | -5% | 1.1 | -10 | 6.3 | 3.1 | 1.0
O=C(O)CCC(=O)Nc1ccc2c(c1)Cc1cc(NC(=O)CCC(=O)O)ccc1-2 | 0.67 | 12% | 0.1 | -4 | 2.7 | -2.8 | -1.7
CCOc1cccc(C=Nc2cc(C)cc(C)c2O)c1O | 0.62 | 29% | 0.0 | 10 | 2.0 | 11 | 1.9
CCn1c(=O)c(C(=O)NCc2ccc(OC)cc2)c(O)c2ccccc21 | 0.65 | 7% | 0.1 | -3 | 0.7 | 2.1 | -0.1
O=C(COC(=O)c1ccccc1NCCO)NCc1cccs1 | 0.69 | -1% | 0.0 | 5 | -404 | 0.3 | -6.0
